# Menin MLL FP FL: menin-MLL binding inhibition, fluorescein peptide; Fluorescence polarization, fluorescein-MLL peptide displacement from menin; FP activity change, % at 61.4 µM; 290,000 tested, under 10 active; AID 1766; inconclusive = falling polarisation curve, or a change in total fluorescence; inactive = total fluorescence flat and polarisation flat or rising; no compound was filed as active; the % refers to the polarisation; negative = inhibition;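 note: % of control where 0% means no effect; inhibitors lower the polarisation; unlabelled MLL peptide was the positive control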
# gsp antagonist: gsp mutant antagonism. gsp-mutant cells, cAMP HTRF, 30 min; control for the full effect not named in the record. Potency, µM (series often up to 76.9 µM), for inactives: at the highest dose activity change, negative = inhibition, hits mostly inhibitors. actives 0.4% (n = 340,000); active = falling curve of any shape with a large fitted effect; inconclusive = falling curve, mostly with a smaller effect; inactive = flat or rising curve; cell line not stated here;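 note: intracellular cAMP measured with PDE inhibitor Ro 20-1724 present during compound exposure; potency is the fitted concentration of half-maximal effect; % is set by controls: 0 for no effect and ±100 for the full control effect; nearly all actives have a fitted effect of over 65% in size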
#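 Cells in G418 medium, seeded 16-24 h, 37C; buffer exchange to DPBS + 1 mM CaCl2, 0.5 mM MgCl2, 0.05% BSA; cpds in DMSO + […] (300 uM stock), 30 min 37C; HTRF cAMP detection.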
# D2 PAM: potentiates the human D2 dopamine receptor allosterically | DiscoveRx D2 beta-arrestin cells, luminescence, 90 min; 100% = 57 uM dopamine signal | potentiation, % (no concentration beside the values) | actives 0.23% (n = 360,000); active = potentiation of 50% or more; inconclusive = 30% to 50%; inactive = 30% or less;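 note: compound concentration not given in the record; tested on top of an EC20 dose of dopamine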
# Target sequence (P14416 whole entry, looked up): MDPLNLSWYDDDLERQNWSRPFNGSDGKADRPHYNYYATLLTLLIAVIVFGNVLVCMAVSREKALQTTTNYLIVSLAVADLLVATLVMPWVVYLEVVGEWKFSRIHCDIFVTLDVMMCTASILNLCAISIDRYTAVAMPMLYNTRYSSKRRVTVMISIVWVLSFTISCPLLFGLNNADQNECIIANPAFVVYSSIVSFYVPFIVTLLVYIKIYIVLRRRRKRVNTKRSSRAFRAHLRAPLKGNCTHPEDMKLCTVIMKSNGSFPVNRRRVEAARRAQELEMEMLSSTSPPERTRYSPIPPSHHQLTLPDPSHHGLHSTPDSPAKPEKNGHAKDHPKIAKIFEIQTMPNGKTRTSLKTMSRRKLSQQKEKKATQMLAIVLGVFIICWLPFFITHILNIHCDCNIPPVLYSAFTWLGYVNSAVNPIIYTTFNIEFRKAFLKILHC
#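 PathHunter D2 cells, attached overnight at 37 deg C, received compound in DMSO plus dopamine at EC20 (50 nM final) for 90 min at 37 deg C. Beta-arrestin recruitment was read as luminescence after 1 h with detection reagent at ambient temperature.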
# Sfp PPTase inh: blocks B. subtilis Sfp PPTase activity; Q9F4F7; Biochemical Sfp PPTase activity, qHTS; Potency, µM, for inactives: max response, negative = inhibition, usual class: inhibitors; actives 3.5% (n = 310,000); AID 1490; active = well fitted inhibition curve with a large enough effect; inconclusive = small, poorly fitted or top-dose-only effect, or another doubt; inactive = no such curve, though single readings can be large or run the other way;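 note: the enzyme is Sfp with the accession as filed and its product quenches rhodamine fluorescence; potency is the fitted concentration of half-maximal effect; 0% = enzyme reaction without inhibitor and -100% = no enzyme wells; top concentration of the series not given in the record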
#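 Compounds were incubated with enzyme (final 15 nM) for 15 min at room temperature before substrate addition started the reaction. Fluorescence at 525 nm excitation, 598 nm emission was recorded immediately and after 30 minutes.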
# ClpP mod: qHTS Assay for Activators of ClpP; ATP-dependent Clp protease proteolytic subunit (Bacillus subtilis (strain 168)), P80244; purified B. subtilis ClpP, FRET peptide cleavage, 20 min; Potency, µM (top dose mostly 57.5 µM), for the others: top-dose activity change, negative = active; actives 1.9% (n = 340,000); AID 651965, 2013; active = well fitted falling curve with a large enough effect; inconclusive = small, poorly fitted or top-dose-only effect; inactive = no such curve, though single readings can be large or run the other way; note: potency is the fitted concentration of half-maximal effect; the source files actives as falling curves though it sought activators and does not explain the sign; nearly all actives have a fitted effect of over 65% in size; many hits overshoot -100%
# Target sequence (P80244 whole entry, looked up): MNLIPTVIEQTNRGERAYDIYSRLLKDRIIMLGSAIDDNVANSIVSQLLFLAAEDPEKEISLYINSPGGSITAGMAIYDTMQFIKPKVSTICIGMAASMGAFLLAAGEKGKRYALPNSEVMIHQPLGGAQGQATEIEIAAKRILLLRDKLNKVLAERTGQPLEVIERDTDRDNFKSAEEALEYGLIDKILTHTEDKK
#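 Purified B. subtilis ClpP, 10 microg/mL final in Tris/HCl pH8 with KCl, BSA, glycerol and Tween-20, cleaved an Abz/nitrotyrosine-quenched decapeptide. Fluorescence (ex 320, em 430) was read at 0 and 20 min at room temperature. Delta was normalized to 5.8 microM ADEP and DMSO/no-enzyme controls.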
# gsp ag: gsp mutant agonism; gsp mutant cells, cAMP HTRF, 30 min; control for the full effect not named in the record; Potency, µM (titrated, usually from 76.9 µM), for the others: at the highest dose activation (cAMP increase), actives largely listed as activators; actives 0.13% (n = 340,000); AID 624287; active = well fitted activation curve with a large enough effect; inconclusive = small, poorly fitted or top-dose-only effect, or another doubt; inactive = no such curve, though single readings can be large or run the other way; cell line not stated here;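 note: phosphodiesterase inhibitor Ro 20-1724 added with compounds to block cAMP breakdown; potency is the fitted concentration of half-maximal effect; nearly all actives have a fitted effect of over 60% in size; about a fifth of the inactives were tested at one dose only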
#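 Cells in DMEM/10% FBS with G418 were pretreated with compounds in DMSO plus […] (300 uM stock) for 30 min at 37C. cAMP was measured by HTRF (cAMP-d2 plus anti-cAMP antibody-K) after 30 min at room temperature.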
# TRPV1 PAM: human TRPV1 potentiation; Q8NER1; TRPV1-expressing cells, Fluo-8 calcium influx, capsaicin EC20 potentiation; host cell line not named in the record; control for the full effect not named in the record; potentiation, % at 8.33 µM; actives 0.02% (n = 320,000); AID 540277; active means potentiation above 80%; inconclusive means 30% to 80%; inactive means below 30%; note: 0% is about no effect
#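 TRPV1-expressing cells were cultured overnight at 35.5C and loaded with Fluo-8 calcium dye for 40 to 90 min at room temperature. After a 10 s baseline, compound was added and calcium influx was read kinetically for 3 min (ex 480/em 520 nm).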
# * hit, by the source's call; ? = inconclusive; / = not tested or not shown; & = joins results of further samples; [ ] = another dose, or the depositor's remark.
SMILES,Menin MLL FP FL,gsp antagonist,D2 PAM,Sfp PPTase inh,ClpP mod,gsp ag,TRPV1 PAM
O=C(Nc1ccc(Cl)cc1)N1CCC(c2nc(-c3ccc(F)cc3)no2)CC1,-0.2,-16.6%,1.8,6.3%,-0.9%,1.5%,-18.6
O=C1CCC(/C=C/c2ccccc2)=NN1Cc1ccc(F)cc1,-4.8,4.1%,-7.4,-1.0%,/,-5.5%[15.4 µM],5.8
Nc1ccccc1C(=O)Nc1cccc(C(=O)O)c1,-1.6,2.4%,5.1,0.3%,?,?,14.1
CCOc1cc2c(cc1OCC)C(c1ccc(F)cc1)NCC2 (stereo not given),/,10.3%,-15.2,/,-0.2%,14.7%,/
COc1ccc(-c2noc(CN(C)S(=O)(=O)c3ccc(Cl)cc3)n2)cc1OC,2.0,?,10.2,1.0%,0.0%,-6.8%,-27.4
CCC(CC)C(=O)Nc1nnc(S(=O)(=O)Nc2ccccc2C)s1,-11.8,-7.6%,2.4,2.7%,-1.6%,?,10.2
COc1ccccc1N1CCN(C(c2ccc(C)cc2)c2nnnn2C(C)C)CC1 (stereo not given),0.1,-6.2%,-11.0,12.0%,-2.5%,-5.7%,-5.7
CC1CCC(NS(=O)(=O)c2ccc3c(c2)CC(=O)N3)CC1 (stereo not given),/,?,-5.2,5.7%,6.8%,2.3%,-3.7
Cc1ccc(N(CC(O)Cn2c3ccccc3c3ccccc32)S(C)(=O)=O)c(C)c1 (stereo not given),-0.4,-3.0%,13.7,9.7%,-3.0%,-34.0%[inhibitor],-15.4
CCc1nccn1C(=O)c1cnn2c(C(F)F)cc(-c3ccccc3)nc12,2.2,/,/,6.1%,/,/,2.5
CCOC(=O)C1=C(C)Nc2sc(C(=O)c3ccc(F)cc3)c(N)c2C1c1ccc(C(=O)OC)cc1 (stereo not given),1.7,4.6%,-28.0,-17.3%,0.7%,0.1%,6.3
COc1ccccc1C(=O)Nc1nnc(S(=O)(=O)N2CCCCC2)s1,-1.4,-3.0%,-8.9,9.5%,-7.6%&-3.6%,?,19.9
CCCC(=O)c1cc(-c2nc3ccccc3n2C)n(C)c1,3.9,2.3%,6.1,19.2%,-12.3%,-2.5%,5.5
Cc1cc(C(=O)N/N=C/c2ccccn2)n[nH]1,-1.0,-1.0%,-0.1,39.8µM*,0.1%,-79.0%[inhibitor],-0.9
CC1CCN(CCCN2C(=O)C3C(C(=O)Nc4ccc(Cl)cc4)C4C=CC3(O4)C2C(=O)NC2CCCCC2)CC1 (stereo not given),5.6,5.5%,-13.2,9.3%,/,0.6%,5.4
CCSc1nnc([C@H](Cc2ccccc2)NC(=O)OC(C)(C)C)o1,-2.1,-13.9%,-2.3,15.5%,2.5%,33.2%,-9.1
O=C(CNC(=O)c1cccc(Br)c1)N/N=C/c1ccc2c(c1)OCO2,2.3,-9.1%,-6.6,-20.7%,/,?,13.7
Nc1nonc1-n1nnc(C(=O)N/N=C/c2ccc(Cl)cc2Cl)c1CN1CCCCC1,-3.8,2.0%,-6.6,22.0%,/,-6.0%,5.4
CC(Sc1nnc2c(n1)C1CCC2(C)C1(C)C)C(=O)Nc1ccccc1 (stereo not given),2.2,-2.3%,-0.8,6.3%,-1.5%,?,-31.3
COc1ccc(C(=O)CSc2nnc(-c3ccccc3)o2)cc1,-1.0,1.0%,-14.6,-7.0%,-2.9%,1.2%,3.1
CC(C)(c1ccccc1)c1ccc(OCc2ccc(C(=O)O)o2)cc1,/,-3.3%,-12.1,/,-1.1%,-54.4%[inhibitor],9.0
COc1ccccc1-c1nc(SCC(=O)NCc2ccco2)c2c(=O)n(C)c(=O)n(C)c2n1,/,-15.3%,10.9,-16.9%,?,?,-11.1
O=C(Nc1cccnc1)c1ccc(Cl)c(Cl)c1,6.4,4.8%,-6.5,10.7%,1.7%,2.8%,-4.7
CC(C)(C)n1nc2c(c1NC(=O)c1ccco1)CS(=O)C2 (stereo not given),2.5,-8.5%,-6.3,14.8%,-2.1%,3.4%[15.4 µM],4.2
COc1cccc(NS(=O)(=O)CC23CCC(CC2=O)C3(C)C)c1 (stereo not given),4.2,-1.8%,-2.0,19.2%,-3.6%,4.0%,-11.5
SMILES,Menin MLL FP FL,gsp antagonist,D2 PAM,Sfp PPTase inh,ClpP mod,gsp ag,TRPV1 PAM
O=C(NCc1ccccc1)c1nc[nH]c1C(=O)NCc1ccccc1,-5.9,2.4%,-0.5,-2.4%,/,3.7%,0.4
NC(=O)c1nsc(C(=O)N(Cc2ccco2)C(C(=O)NCC2CCCO2)c2ccc(F)cc2)c1N (stereo not given),2.0,-2.4%,2.3,14.6%,/,14.8%,5.7
CCSc1nnc(-c2cccc(S(=O)(=O)N(CC)CC)c2)n1Cc1ccccc1,4.3,?,-1.3,5.5%,-0.7%,-1.7%,-18.6
CCN(CC)c1ccc(C=N/C(C#N)=C(\N)C#N)cc1,?,-16.0%,-9.0,4.6%,2.8%,?,-34.8
CC(C)(C)C(=O)Nc1cc2c3c(c1)CCN3C(=O)CC2,-0.1,9.2%,-11.4,20.4%,1.2%,-1.1%,-4.6
Cc1ccc(S(=O)(=O)Nc2c(C)n(C)n(-c3ccccc3)c2=O)cc1C(=O)NCc1ccco1,/,-1.2%,-0.3,/,-1.7%,12.4%,/
Nn1c(SCC(=O)NC(=O)NC2CCCC2)nnc1-c1ccccc1F,4.2,3.0%,-11.2,4.6%,0.4%,-4.8%,-11.8
COc1ccc(S(=O)(=O)N2CCOCC2)cc1NC(=O)c1ccncc1,/,16.2%,18.2,/,0.9%,-2.4%,16.3
O=C(CN1CCN(Cc2ccccc2)CC1)N/N=C/C=C/c1ccccc1[N+](=O)[O-],-0.2,3.6%,-27.2,19.6%,2.4%,0.0%,-2.1
O=C(O)c1ccc(CNCc2cccc(Cl)c2Cl)cc1,6.6,-1.5%,-16.6,11.9%,6.2%,0.9%,-7.7
CCCN(CCC)CC(O)Cn1cc(/C=C/C(=O)c2cccs2)c2ccccc21 (stereo not given),?,4.3%,-28.9,-18.7%,-0.8%,?,-7.3
O=c1cc(O)c2c(=O)n(-c3ccccc3)c3c(c2o1)CCCCC3,3.9,?,-4.3,7.6%,-10.1%,?,?
Cc1cc(Nc2c(C)n(C)n(-c3ccccc3)c2=O)n2c(nc3ccccc32)c1C#N,6.2,1.0%,3.5,-27.5%,-2.4%,7.8%,1.1
Cc1ccc(C(=O)N2CCC3CC2c2cc(-c4ccc5c(c4)OCO5)ccc23)cc1 (stereo not given),/,-20.0%,-5.8,/,?,/,/
CCOc1ccc(-n2c(SCC(=O)NC3CCS(=O)(=O)C3)nnc2-c2cccnc2)cc1 (stereo not given),-9.2,-35.2%,12.9,16.0%,/,17.7%[15.4 µM],2.9
COc1ccc(C)cc1NC(=O)CN1CCN(S(=O)(=O)c2ccc(C(C)C)cc2)CC1,4.1,-15.0%,-6.3,2.9%,?,-2.4%,-36.8
O=C(O)c1cccc(N/N=C/c2cn(-c3ccccc3)nc2-c2cccs2)c1,-0.6,-50.2%,11.8,-7.7%,/,25.4%[15.4 µM],4.9
COc1cccc(C2c3[nH]c4ccccc4c3CCN2Cc2cnn(C)c2)c1 (stereo not given),-1.3,3.6%,-9.5,-3.3%,-29.1%,?,-1.8
Cc1cccc(Cn2c(N3CCN(CCO)CC3)nc3c2c(=O)[nH]c(=O)n3C)c1,-1.9,2.3%,-16.8,10.8%,-3.5%,9.2%,7.4
Cc1nnsc1C(=O)N1CCC(C(=O)c2ccccc2)CC1,2.4,-7.9%,-9.3,24.6%,-1.8%,9.7%[15.4 µM],-4.7
CC(C)c1ccc(C(=O)OCC(=O)NC2CCCC2)cc1,-5.2,-3.6%,-2.8,7.8%,-1.3%,21.2%,-16.9
COc1ccc(NC(=O)CN(C)S(=O)(=O)c2cnc[nH]2)cc1,/,11.5%,-9.0,2.6%,-1.1%&-3.2%,22.9%,16.3
CC(C)=NOC(=O)c1ccc(-c2ccccc2)cc1,1.2,-9.8%,-0.6,-4.7%,-1.6%,28.9%,-8.3
Cc1cc(C)n(-c2nc3ccccc3c(=O)n2OC2CCCCC2)n1,3.5,2.0%,9.0,14.7%,-2.9%,-3.6%,-4.3
Nc1ncnc(N2CCOCC2)c1N,8.4,-2.7%,-2.4,8.3%,/,-23.6%,?
SMILES,Menin MLL FP FL,gsp antagonist,D2 PAM,Sfp PPTase inh,ClpP mod,gsp ag,TRPV1 PAM
Cc1c(-c2nnnn2-c2ccc(F)cc2)cnc2cc3c(cc12)OCO3,-0.1,-27.4%,-7.2,14.6%,?,5.6%,0.5
O=[N+]([O-])c1ccc(N2CCN(S(=O)(=O)c3ccccc3)CC2)cc1NCC1CCCO1 (stereo not given),-0.9,-2.0%,-6.4,32.3%[activator],-1.9%,-1.4%,-1.0
O=C(CSc1n[nH]c(=O)n1-c1cccnc1)Nc1ccccc1,/,4.3%,-3.3,9.7%,-3.4%,-3.7%,-11.0
O=C(COC(=O)c1ccc(O)cc1)NC(=O)NCc1ccccc1,/,-0.4%,-15.4,/,2.8%,?,4.0
O=C(CSc1ncccn1)N/N=C/c1ccc2c(c1)OCO2,0.5,0.8%,-13.7,7.9%,-11.2%,19.8%,22.0
O=C(NCCC(=O)N1CCC2(CC1)NCCc1[nH]cnc12)c1cccc(C(F)(F)F)c1,/,12.8%,-2.8,0.9%,-0.2%,5.1%,3.5
CC(C)(C)OC(=O)N1CCC(c2c(C(=O)N3CCN(C(=O)c4ccco4)CC3)cnn2-c2ccc(F)cc2F)CC1,-1.9,-11.3%,1.0,19.2%,-0.1%&-0.8%,-1.4%,-1.3

# Copied from the list:
# Cc1c(-c2nnnn2-c2ccc(F)cc2)cnc2cc3c(cc12)OCO3 | Menin MLL FP FL: -0.1
# O=C(NCCC(=O)N1CCC2(CC1)NCCc1[nH]cnc12)c1cccc(C(F)(F)F)c1 | gsp ag: 5.1%

# Screening data deposited in PubChem by National Center for Advancing Translational Sciences (NCATS).
